# Source: PubChem (National Center for Advancing Translational Sciences (NCATS))
# Cruzain Triton = cruzain (T. cruzi) inhibition with detergent; AID 1478; Potency, µM, without a hit: max response, negative = inhibition, hits mostly inhibitors; actives 0.43% (n = 200,000); purified cruzain, Z-FR-AMC fluorescence, 0.01% Triton; P25779;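 also: plate controls were neutral wells for no effect and buffer without enzyme for full effect; nearly all actives have a fitted effect of over 40% in size; top concentration of the series not given in the record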
# Target sequence (P25779 123-467 limits assumed): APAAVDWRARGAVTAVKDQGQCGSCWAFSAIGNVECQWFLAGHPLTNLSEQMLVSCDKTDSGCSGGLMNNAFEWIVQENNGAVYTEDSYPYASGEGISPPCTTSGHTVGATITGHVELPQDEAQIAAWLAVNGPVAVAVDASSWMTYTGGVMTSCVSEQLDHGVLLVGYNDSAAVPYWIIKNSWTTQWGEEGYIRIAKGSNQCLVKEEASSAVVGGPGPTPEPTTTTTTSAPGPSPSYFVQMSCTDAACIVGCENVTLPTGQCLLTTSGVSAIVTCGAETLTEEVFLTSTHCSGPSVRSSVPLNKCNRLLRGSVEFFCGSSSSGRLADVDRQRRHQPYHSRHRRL
#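 Cysteine protease activity tested under reducing, mildly acidic conditions (100 mM sodium acetate pH 5.5, 5 mM DTT) plus 0.01% Triton X-100. Cruzain 1.5 nM; substrate Z-FR-AMC 2 uM; 15 min compound preincubation at room temperature.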
# SARS PLP yeast = SARS-CoV PLP inhibition in yeast | S. cerevisiae expressing SARS-CoV PLpro, growth rescue; control for the full effect not named in the record | Potency, µM (series often up to 32.9 µM), for the others: at the top dose activity, positive = growth rescue | actives 0.19% (n = 330,000); active means well fitted rising curve with a large enough effect; inconclusive means small, poorly fitted or top-dose-only effect; inactive means no such curve, though single readings can be large or run the other way; also: 0% is about no effect; nearly all actives have a fitted effect of over 55% in size; growth read by luminescence after 48 h
# RE007 growth inh = less growth of the S. pombe RE007 Vpr strain | S. pombe RE007 Vpr strain, BacTiter-Glo ATP luminescence, 24 h; control for the full effect not named in the record | Potency, µM (titrated, usually from 92.2 µM), for inactives: top-dose activity change, negative = less growth | actives 0.21% (n = 360,000) | AID 651644; active = well fitted falling curve with a large enough effect; inconclusive = small, poorly fitted or top-dose-only effect; inactive = no such curve, though single readings can be large or run the other way;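 also: % is scaled to controls: 0 for no effect and ±100 for the full control effect; nearly all actives have a fitted effect of over 50% in size; the assay follows cell death caused by Vpr and the record does not say whether a fall means rescue or toxicity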
#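 Fission yeast strain RE007, carrying one chromosomally integrated HIV-1 vpr copy, was seeded at OD 0.01 in PMG+AL medium with 23 nL pinned compound. After 24 h at 30 °C and 99% humidity, viability was read by BacTiter-Glo luminescence.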
# 2A StopGo = lowers the luciferase signal of an FMDV 2A StopGo reporter; Potency, µM (top dose mostly 57.9 µM), for the others: at the top dose signal change, negative = less light; actives 1.2% (n = 410,000); human cells with a luciferase reporter of 2A StopGo recoding; control for the full effect not named in the record; active = well fitted falling curve with a large enough effect; inconclusive = small, poorly fitted or top-dose-only effect; inactive = no such curve, though single readings can be large or run the other way; tested in HEK293T cells; also: % is scaled to controls: 0 for no effect and ±100 for the full control effect; nearly all actives have a fitted effect of over 45% in size; luciferase light after 4 h
# Lassa entry inh = inhibitors of Lassa virus binding or cell entry; Lassa virus pseudotype entry inhibition, cell reporter; control for the full effect not named in the record; Potency, µM (series often up to 37.9 µM), without a hit: at the highest dose activity change, negative = inhibition, actives largely listed as inhibitors; actives 1.2% (n = 300,000); AID 540256; active means well fitted inhibition curve with a large enough effect; inconclusive means small, poorly fitted or top-dose-only effect, or effect the other way; inactive means flat fitted curve, though single readings scatter; tested in HEK293 cells; also: % is scaled to controls: 0 for no effect and ±100 for the full control effect; nearly all actives have a fitted effect of over 50% in size; luciferase read-out
# Cruzain noTriton = blocks cruzain activity in detergent-free assay; purified cruzain, Z-FR-AMC fluorescence, no detergent; Potency, µM, for the others: max response, negative = inhibition, actives largely listed as inhibitors; actives 2.3% (n = 200,000);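 also: plate controls were enzyme without inhibitor for no effect and buffer without enzyme for full effect; nearly all actives have a fitted effect of over 40% in size; top concentration of the series not given in the record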
#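 Purified cruzain at 1.5 nM, pre-incubated 15 min with compound at room temperature in 100 mM sodium acetate pH 5.5, 5 mM DTT, 0.00005% Triton X-100. Reaction started with 2 uM Z-FR-AMC; AMC fluorescence increase over 60 s gives rate.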
# NS1 inh = blocks influenza NS1 protein function. S. cerevisiae slowed by influenza A NS1, growth recovery by OD600. Potency, µM (doses to about 46.1 µM), inactives show at the top dose activity, positive = more growth. actives 0.4% (n = 270,000). AID 2326; active means well fitted rising curve with a large enough effect; inconclusive means small, poorly fitted or top-dose-only effect; inactive means no such curve, though single readings can be large or run the other way; also: nearly all actives have a fitted effect of over 50% in size
#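 In this qHTS, NS1 from influenza A is expressed in budding yeast, where it slows growth. Cells are switched from glucose to 2% galactose medium (pH 6.0, -URA), treated with compound, and growth recovery is read at OD600.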
# MARV entry inh = Marburg virus entry inhibition | Potency, µM (top dose mostly 37.8 µM), for the others: at the highest dose activity change, negative = inhibition, most hits filed as inhibitors | Marburg virus pseudotyped entry inhibition, cell reporter; control for the full effect not named in the record; about a third of the inactives were read at about 46 µM | actives 1.8% (n = 300,000); active = well fitted inhibition curve with a large enough effect; inconclusive = small, poorly fitted or top-dose-only effect, or effect the other way; inactive = flat fitted curve, though single readings scatter; tested in HEK293 cells; about a fifth of its hits are not listed in these tables; also: % is scaled to controls: 0 for no effect and ±100 for the full control effect; luciferase read-out
# Numbers without * were called inactive; ? = inconclusive; . = not tested or not shown; & = joins results of further samples; [ ] = another dose, or the depositor's remark. Unless noted, calls follow the shape of the dose curve; as a rule, active = well fitted curve in the direction sought with a large enough effect; inconclusive = small, poorly fitted or top-dose-only effect, or another doubt; inactive = no such curve, though single readings can be large; an effect the other way counts as inactive or inconclusive. Potency is read from the fitted curve at half-maximal effect.
SMILES,Cruzain Triton,SARS PLP yeast,RE007 growth inh,2A StopGo,Lassa entry inh,Cruzain noTriton,NS1 inh,MARV entry inh
Cc1nnsc1C(=O)NC1CCCCC1,7.8%,2.5%,-11.1%,.,-14.7%,-4.6%,0.8%,-12.1%
N#Cc1ccc(-c2ccc(Cl)cc2)nc1SCC(=O)c1cccc(Cl)c1,2.0%,14.2%,3.8%,-7.1%,6.6%,10µM*,19.2%,0.1%
COC(=O)c1cn(C(=O)c2cc(Br)ccc2Cl)c2ccccc12,.,0.1%,3.8%,-24.4%,.,.,9.9%,.
COCc1ccc(CN2CCC(C(=O)Nc3cccc(-c4cscn4)c3)CC2)o1,.,4.0%,2.8%,-27.5%,-24.1%[46.1 µM],.,4.5%,3.7%[46.1 µM]
COc1ccc(-c2csc3ncnc(N4CCN(S(=O)(=O)c5ccc(C)c(C)c5)CC4)c23)cc1,.,-6.6%,-6.2%,-26.2%,.,.,.,?
COc1ccc(-c2nnc(SCC(=O)N3CCCCC3)o2)c(OC)c1,1.6%,-3.2%,2.9%,.,-11.5%,5.2%,-0.4%,?
Cc1occc1C(=O)N(C)Cc1nc(-c2ccccc2)no1,.,1.1%,13.9%,1.7%,6.5%[46.1 µM],.,-7.2%,-1.1%[46.1 µM]
COc1ccc(-c2cc(N)n(CCC#N)n2)c(OC)c1,1.2%,-1.1%,2.2%,8.9%,14.5%,-9.0%,6.7%,3.3%
COc1ccc(NC(=O)C/C(C)=N/NC(=O)c2cnccn2)c(OC)c1,.,-0.8%,2.8%,-11.4%,10.2%[46.1 µM],.,15.6%,13.1%[46.1 µM]
Cc1ccc(-n2nnc(C(=O)Nc3cc(F)ccc3F)c2C)cc1F,-1.9%,.,.,28.5%,?,9.8%,.,0.5%[46.1 µM]
Cc1ccc(NC(=O)CCc2nnc3ccc(N4CCC(C)CC4)nn23)nc1,.,0.5%,7.8%,-12.3%,.,.,6.2%,.
CCOc1ccc(S(=O)(=O)Nc2ccc(C(=O)N3CCCC3)cc2)cc1,.,10.5%,-2.7%,23.9%,.,.,0.0%,.
CC(C)c1nc2ccc(C(=O)Nc3ccccc3F)cc2o1,-1.3%,.,.,?,15.0%[46.1 µM],-4.0%,.,.
Cc1ccc(C(C(=O)NCc2ccccc2)N(Cc2ccco2)C(=O)c2snc(C(N)=O)c2N)o1 (stereo not given),.,8.4%,5.8%,1.0%,?,.,9.1%,?
CCCCn1c(N)c(N(CCOC)C(=O)c2ccc(C)o2)c(=O)[nH]c1=O,.,.,-5.8%,-12.0%,-3.1%,.,.,3.3%
O=C(CCN1C(=O)c2ccccc2C1=O)NCc1ccccc1,.,4.2%,3.3%,4.4%,.,.,-4.0%,.
Cc1cc(C)n2nc(N)c(N=Nc3ccccc3)c2n1,.,-2.0%,?,3.6%,-10.8%[46.1 µM],.,-5.9%,?
CCOc1ccc(Cl)cc1CSc1n[nH]c(C)n1,.,-5.5%,-9.8%,-16.8%,-4.1%,.,-7.9%,-0.2%[46.1 µM]
Cc1onc(-c2ccccc2)c1C(=O)N/N=C/c1cccs1,.,1.2%,1.6%,-8.5%,.,.,-0.8%,.
O=C1NCCN1CCN1C(=O)c2ccccc2NC1c1ccccc1 (stereo not given),.,0.2%,-3.4%,-9.3%,-5.4%,.,4.3%,?
O=C(Cn1cnc2onc(-c3ccc(F)cc3)c2c1=O)N1CCN(c2ccc(F)cc2)CC1,-8.6%,.,.,-6.0%,?,17.7%,.,.
O=C1CC(SCc2nc3ccccc3[nH]2)C(=O)N1c1ccc(F)cc1 (stereo not given),-7.2%,-35.6%,?,-0.7%,15.1%,?,-56.2%,11.9%
CCN(CC)CCn1c(=N)n(CC(=O)c2ccc(C)cc2)c2ccccc21,.,0.9%,-3.9%,6.3%,.,.,10.4%,.
CC(C)n1nnnc1SCC(=O)NCc1cccs1,4.7%,2.2%,-0.4%,10.6%,6.2%,-6.6%,5.6%,1.4%[46.1 µM]
COc1ccc(OC)c(NC(=O)N2CC3CCCN3c3ccccc32)c1 (stereo not given),-4.6%,.,.,?,5.7%[46.1 µM],-10.0%,.,.
COc1ccc(NC(=O)c2cccc(C#N)c2)cc1NS(=O)(=O)c1ccc(F)cc1,-3.9%,-16.7%,4.7%,-12.3%,-19.3%,3.9%,7.1%,?
CCn1c(SCC(=O)NC2CC2)nnc1-c1ccc(C)cc1,.,-2.5%,-2.2%,-11.9%,.,.,14.0%,.
CCOC(=O)C1CCN(C(=O)COc2ccc(Cl)cc2Cl)CC1,-0.7%,4.7%,?,-22.3%,10.6%,-7.0%,-4.2%,-13.2%
O=C(/C=C/c1ccc2c(c1)OCO2)c1cccnc1,.,-5.3%,?,-21.9%,16.4%[46.1 µM],.,-9.3%,0.4%[46.1 µM]
c1ccc2c3c([nH]c2c1)-c1[nH]ncc1CC3,-9.8%,-1.4%,-19.6%,39.3%[activator],?,-4.6%,-122.9%,0.4%
COc1ccc(S(=O)(=O)N2CCC(Oc3ccc(-n4cnnn4)cc3)CC2)cc1,2.5%,.,.,-6.6%,19.9%[46.1 µM],5.9%,.,-5.2%[46.1 µM]
CCN(CC)CCN(Cc1cc2cc3c(cc2[nH]c1=O)OCO3)C(=S)NCCCOC,.,3.1%,0.1%,16.3%,.,.,-13.5%,.
O=C(Cn1nnc2c(cnn2-c2ccc(F)cc2)c1=O)Nc1ccccc1C(F)(F)F,.,0.8%,-4.7%,-4.6%,.,.,1.1%,.
Cc1oc(S(=O)(=O)N2CCCCC2)cc1NC(=O)Nc1ccc(Cl)cc1,.,-0.7%,8.1%,12.8%,.,.,-3.4%,.
CC12CCC(C(=O)N(CSC(=S)N/N=C\c3ccccc3)C1=O)C2(C)C (stereo not given),-3.2%,10µM*,8.3%,6.2%,-0.1%,-1.3%,?,18.9%
CSCC[C@H](NC(=O)N1CCn2c1nc1ccccc12)C(=O)NCC1CCCO1 (stereo not given in full),.,1.2%,-2.2%,-11.0%,.,.,-0.7%,.
Cc1nccc2oc(=O)c(NC(=O)c3ccc(Cl)cc3)cc12,.,-1.1%,?,19.7%,0.8%[46.1 µM],.,.,-4.3%[46.1 µM]
CC1CCCN(C(=O)c2ccc(OC3CCN(CCc4ccccc4)CC3)cc2)C1 (stereo not given),.,?,0.3%,-5.7%,.,.,-14.8%,.
O=C(NCc1ccccc1Cl)C(=O)NCC(c1ccc2c(c1)OCO2)N1CCOCC1 (stereo not given),-3.4%,.,.,-8.5%,-1.2%[46.1 µM],-11.6%,.,.
COc1ccc(S(=O)(=O)N2CCCC2CNC(=O)C(=O)NCc2ccccn2)cc1 (stereo not given),.,0.7%,9.8%,-7.8%,-3.0%,.,.,9.3%
COc1ccccc1-c1cc(=O)c2c(O)ccc([N+](=O)[O-])c2o1,.,1.6%,6.2%,-18.3%,.,.,5.9%,.
CC(CCc1ccccc1)NC(=O)c1ccccc1Cl (stereo not given),.,3.6%,12.5%,1.5%,-1.5%[46.1 µM],.,-3.9%,10.7%[46.1 µM]
COC(=O)[C@@]1(Cc2ccc(OC)cc2)[C@H]2c3cc(C(=O)N4CCCC4)n(CCn4cc([N+](=O)[O-])nc4C)c3C[C@H]2CN1C(=O)c1ccccc1,-3.5%&0.3%,9.6%,13.0%,-9.9%,25.0%,?,10.1%,3.7%
NC(=O)c1ccc[n+](CC(=O)c2ccc(F)cc2)c1,.,0.2%,10.0%,-15.3%,28.1%,.,9.8%,9.8%
O=C1C2CCCN2C(c2ccccc2F)N1c1cccc(Cl)c1 (stereo not given),-4.5%,0.5%,16.9%,6.4%,.,-6.2%,-10.8%,.
Cc1ccc(N2C=Nc3ccc(C)c4nc(C)cc2c34)cc1,-0.9%,2.4%,16.9%,-5.7%,6.3%,-7.2%,4.1%,6.0%[46.1 µM]
COc1cc(C(=O)Nc2scc(-c3ccc(C)cc3)c2C(=O)O)cc(OC)c1OC,.,5.4%,7.5%,-24.0%,.,.,27.7%,.
Cc1nn(C)cc1CNC(=O)Nc1ccc(Br)cc1Cl,-6.7%,-1.1%,-1.0%,11.6%,10.3%,-5.8%,-1.5%,0.2%
Clc1nc(N2CCOCC2)ncc1Br,.,0.1%,-14.7%,-10.0%,?,.,-0.9%,-12.4%
CCNC(=O)c1cnc2sc(N3CCCCCC3)nn2c1=O,-4.1%,.,.,13.3%,18.7%[46.1 µM],1.0%,.,.
O=C(CCCn1c(=O)oc2ccccc21)Nc1ccccc1,.,4.8%,-23.1%,4.6%,27.0%,.,.,23.8%[46.1 µM]
COc1ccc(N(CC(=O)NCCc2ccccc2)S(=O)(=O)c2ccccc2)c(OC)c1,-2.8%,.,.,-1.2%,-27.6%[46.1 µM],22.3%,.,-28.9%[46.1 µM]
CCOc1ccc(CNC(=O)C(C)n2ccc3cc(S(=O)(=O)N4CCCC4)ccc32)cc1 (stereo not given),.,-8.2%,-7.3%,-0.7%,.,.,3.4%,.
NC(=O)c1c(NC(=O)c2nc(SCc3ccccc3F)ncc2Cl)sc2c1CCCC2,0.4%,.,.,-23.4%,3.9%[46.1 µM],11.3%,.,23.1%[46.1 µM]
N/C(=N\c1nc2ccccc2o1)NC(=O)c1ccc([N+](=O)[O-])cc1,.,-1.2%,-14.6%,43.6%[activator],?,.,0.1%,15.0%[46.1 µM]
CCOc1ccc(-c2cc(C(=O)NCCc3ccc(Cl)cc3)c3ccccc3n2)cc1,2.0%,.,.,23.2%,?,-12.5%,.,.
COc1ccccc1-n1ccnc(SCC(=O)NC2CCCC2)c1=O,.,21.9%,13.2%,-10.5%,2.3%,.,.,13.5%[46.1 µM]
C=CCn1c(CCC(=O)O)ccc1-c1ccc(OC)cc1,-3.8%,-1.9%,-1.9%,.,-1.1%,-1.9%,6.6%,29.0%
CN1CCN(S(=O)(=O)c2ccc(NC(=S)NC(=O)C(C)(C)C)cc2)CC1,.,-0.3%,2.6%,2.4%,10.4%,.,-3.1%,?
CS(=O)(=O)c1ccc(Cl)c(C(=O)O)c1,6.1%,2.1%,4.0%,.,15.8%,15.7%,0.8%,21.4%
